Measles inh: inhibitors of measles virus growth in cells, primary screen, measles RdRp inhibitor project, cell-based, single point, HTS; infected Vero cells, GFP fluorescence, 64 h; stronger effect = lower value; z-score (concentration not given with the values); hit rate 0.1% among 33,000;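 active = z-score under -3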;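 note: score is relative to mean and SD of the compound wells of a plate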
Active calls of the source: *. Not all compounds are listed (hit frequency here may not be typical).

SMILES | Measles inh
C=C(C)CC1N(c2ccccc2F)C(=O)C2C(C(=O)O)C3C=CC21O3 (configuration not stated) | 1.76
CC(=Cc1nsc(Nc2ccc(Cl)cc2)n1)NCc1ccc2c(c1)OCO2 | -0.12
CC1CCCC(NC(=O)c2cc(S(=O)(=O)N3CCOCC3)ccc2F)C1C (configuration not stated) | 0.39
COc1ccc(OC)c(S(=O)(=O)Nc2ccccc2OC)c1 | -0.15
CCOC(=O)C1=C(C)Nc2nnnn2C1c1ccc(OCc2ccccc2)cc1 (configuration not stated) | -0.42
O=C(Nc1ccccc1[N+](=O)[O-])c1ccc(Br)cc1 | 0.74
CCc1ccc2oc(-c3cc(N=Cc4cccc(OC)c4O)ccc3O)nc2c1 | -0.91
CCN1CCN(C(=O)c2sc3nc(C)nc(N4CCC(C)CC4)c3c2C)CC1 | -0.57
COc1cccc(-n2c(SCC(=O)NCc3ccc(F)cc3)nc3c([nH]c4ccccc43)c2=O)c1 | -0.44
Nc1c(C(=O)c2ccc(Br)s2)oc2ccccc12 | 0.19
Cc1cc(C)c(C#N)c(SCC(=O)N2CCCCC2)n1 | -0.34
CCOC(=O)C(C)(C)N(Cc1ccccc1C)S(=O)(=O)c1cccc([N+](=O)[O-])c1 | -0.63
COc1ccc(NC(=O)CCN2C(=O)c3ccccc3C2=O)c(OC)c1 | 0.6
CCOc1ccc(NC(=O)c2cc3n(n2)C(C(F)(F)F)CC(c2ccc4c(c2)OCO4)N3)cc1 (configuration not stated) | 0.37
Fc1ccc(-c2nc(-c3ccccc3)c3ccccn23)cc1 | 0.81

Exported with values ahead of the structure: two of the compounds above.
| Measles inh | smiles |
| --- | --- |
| 0.39 | CC1CCCC(NC(=O)c2cc(S(=O)(=O)N3CCOCC3)ccc2F)C1C (configuration not stated) |
| -0.15 | COc1ccc(OC)c(S(=O)(=O)Nc2ccccc2OC)c1 |

Next entries.
SMILES | Measles inh
O=C(c1cccc(Cl)c1)n1cnc2ccccc21 | 1.49
Cc1ccccc1NS(=O)(=O)c1ccc2[nH]cc(C(=O)NC(C)c3ccccc3)c(=O)c2c1 (configuration not stated) | 0.87
CCOC(=O)c1ccc(-n2cc(-c3ccc(OCC)cc3)[nH]c2=S)cc1 | 0.01
CC1(C)CC(=O)c2cc(OCC(=O)N3CCc4ccccc4C3)ccc2O1 | 0.08
CCC(=O)Nc1nc(CC)c(-c2ccc([N+](=O)[O-])o2)s1 | 0.69
CCS(=O)(=O)Nc1ccc(C2=NN(S(=O)(=O)c3ccc(C)cc3)C(c3ccc(F)cc3)C2)cc1 (configuration not stated) | 0.13
Cc1ccc2c(c1)C(c1ccccc1)N(C(=O)c1ccc(S(=O)(=O)N3CCCC3)cc1)CC(=O)N2 (configuration not stated) | 1.21
CCc1nc(Cl)c(C#N)c2c1CCCC2 | 1.01
Cc1ccc(-c2nc3ccccc3s2)cc1NC(=O)c1ccccc1Cl | 0.88
Nc1nnc(-c2ccc(Cl)cc2)s1 | -0.22
CSc1nc2c(cc1C#N)CCC2 | -0.78
CCN(CC)C(=O)CCc1nc(-c2ccc(C)cc2)no1 | 0.08
CCOc1cc2c(cc1OCC)C1C(C(=O)N3CCN(Cc4ccccc4)CC3)c3ccccc3C(=O)N1CC2 (configuration not stated) | -0.07
N#CCCn1cc(F)c(N)nc1=O | 0.95
CCn1c[n+](CC(O)COc2ccc(OC)cc2)c2cc(C)c(C)cc21 (configuration not stated) | -0.69
Cc1ccc(C)c(Oc2coc3cc(OC(=O)c4ccc(F)cc4)ccc3c2=O)c1 | -0.08
O=C(CN1CCCc2ccccc21)N1CCCc2c1c(=O)oc1ccc(O)cc21 | -1.16
CN(C)c1ccc(C(=S)N2CCOCC2)cc1 | 0.73
CCN(CC)Cc1cc(Cl)c2cccnc2c1O | -1.49
COC(=O)c1sc2[nH]c(=S)n(CCN3CCCC3)c(=O)c2c1C | -0.11
COC(=O)c1sc(NC(=O)COc2ccc(C)cc2)nc1C | -0.44
O=C(NCCc1cnc[nH]1)c1cccn2c(=O)c3ccccc3nc12 | -0.57
CCCNC(=O)c1nn2c(c1Cl)NC(c1cccs1)CC2C(F)(F)F (configuration not stated) | -1.24
CC1CCN(c2ncnc3sc4c(c23)CCCC4)CC1 | -1.38
CCOC(=O)c1ccc2c(c1)sc(=NC(=O)c1ccc(S(=O)(=O)N3CCCCC3C)cc1)n2C (configuration not stated) | -0.63
COc1ccc(-n2c(C)cc(C(=S)N3CCOCC3)c2C)cc1 | 0.17
Cc1cccc(N2CCN(C(=O)CCC3Nc4c5ccccc5nc(=S)n4C3=O)CC2C)c1 (configuration not stated) | -0.25
O=C(NCc1ccc2c(c1)OCO2)C1C2C=CC3(CN(Cc4ccccc4Cl)C(=O)C13)O2 (configuration not stated) | 0.89
CC1CCN(CCCCCOc2ccccc2Br)CC1 | -0.74
Oc1ccccc1C1CC(c2ccc(Br)cc2)=NC(c2ccc(F)cc2)N1 (configuration not stated) | 0.06
Cc1ccccc1NC(=O)c1ccc(F)c(S(=O)(=O)NC2CCCC2)c1 | 2.7
O=C(CSc1c2c(nc3ccccc13)CCCC2)N1CCCCC1 | 0.37
CC(c1ccccc1)N1C(=O)CCC1(C)C(=O)NC1CCCCCCC1 (configuration not stated) | -0.05
Cc1ccccc1C(=O)NCCCn1ccnc1 | -0.43
Clc1cccc(OCOCOc2cccc(Cl)c2)c1 | -0.77
COc1cccc(CNC(=O)CN2C(=O)C3C4C=CC(C4)C3C2=O)c1 (configuration not stated) | -0.42
Cc1cc(Oc2cc(N)cc([N+](=O)[O-])c2)ccc1Cl | -0.62
Cc1c(C(=O)N2CCN(c3ccc(F)cc3)CC2)sc2ncn(CC(=O)N3CCC(C)CC3)c(=O)c12 | 1.72
N#Cc1cc2c(nc1SCC(=O)NCCc1ccccc1)CCCCC2 | -0.38
CCNS(=O)(=O)c1cc(-c2nnc(Nc3cccc(C(F)(F)F)c3)c3ccccc23)ccc1C | -0.06
O=C(NCCN1CCCCCC1)C1CCCN(S(=O)(=O)N2CCCC2)C1 (configuration not stated) | 0.84
CCC(=O)Nc1c2c(nn1-c1ccc(F)cc1)CS(=O)(=O)C2 | -0.89
CCn1c(SCc2nc(-c3ccccc3)no2)nc2ccccc21 | -0.12
COc1ccc(-n2c3c(cc(C(=O)Nc4ccc(C)cc4)c2=O)C(=O)CC(C)(C)C3)cc1 | 0.71
COc1ccc(-n2c(SCC(=O)Nc3cccc(C)c3)nc3c([nH]c4ccccc43)c2=O)cc1 | 0.54
O=C(Nc1c2c(nn1-c1cccc(Cl)c1)CS(=O)C2)c1ccc(S(=O)(=O)N2CCCCC2)cc1 (configuration not stated) | 0.66
CCOc1ccc2c3c(c(=O)oc2c1C)CCC3 | 0.39
COc1ccc(OC)c(NC2=C(Cl)C(=O)N(c3ccc(C)c(Cl)c3)C2=O)c1 | -0.65
CN(C)c1ccc(NC(=O)C2CC3CCCC(C2)C3=O)cc1 (configuration not stated) | -1.75
CSc1nc2sc3c(c2c(=O)n1C1CCCCC1)CC(C(C)C)OC3 (configuration not stated) | 0.3
CC(=O)N1CCCc2cc(S(=O)(=O)Nc3ccc(C(C)C)cc3)ccc21 | 0.49
Cc1[nH]c(=O)[nH]c(=O)c1NCCO | -0.04
Cc1ccc2nc(NC(=O)CSc3nc4c(c(=O)n3C)SC(C)C4)sc2c1 (configuration not stated) | -0.4
CC1=C(C(N)=O)C(c2ccc(C)cc2)n2nc(SCc3ccccc3F)nc2N1 (configuration not stated) | -0.7
CCOC(=O)C1=C(C)N=C2SCCC(=O)N2C1c1ccc(OC)cc1 (configuration not stated) | -0.53
CCOc1ccc(/C(O)=C2\C(=O)C(=O)N(Cc3cccnc3)C2c2ccccc2F)cc1 (configuration not stated) | -0.51
CC(C)(C)NC(=O)C[n+]1ccc(C(N)=O)cc1 | -0.12
Cc1cc2oc(=O)c3c(c2c2occ(-c4ccc(Cl)cc4)c12)CCC3 | -0.24
N#Cc1cc(Cl)c(N2CCOCC2)cc1C#N | 0.91
Cc1cccc(N2C(=O)c3ccc([N+](=O)[O-])cc3C2=O)c1 | 0.84

6 entries drawn at random from those above, as already listed:
SMILES | Measles inh
COc1ccc(OC)c(NC2=C(Cl)C(=O)N(c3ccc(C)c(Cl)c3)C2=O)c1 | -0.65
CC1=C(C(N)=O)C(c2ccc(C)cc2)n2nc(SCc3ccccc3F)nc2N1 (configuration not stated) | -0.7
N#Cc1cc(Cl)c(N2CCOCC2)cc1C#N | 0.91
CCOc1ccc2c3c(c(=O)oc2c1C)CCC3 | 0.39
CCOC(=O)C1=C(C)N=C2SCCC(=O)N2C1c1ccc(OC)cc1 (configuration not stated) | -0.53
O=C(Nc1c2c(nn1-c1cccc(Cl)c1)CS(=O)C2)c1ccc(S(=O)(=O)N2CCCCC2)cc1 (configuration not stated) | 0.66

(next part)
SMILES | Measles inh
CCOC(=O)CSc1nnc2n(C)c(=O)c3c(n12)-c1ccccc1CC31CCCCC1 | -0.41
COC(=O)c1ccc2c(c1)N(Cc1ccccc1F)C(=O)c1ccccc1S2 | 0.81
CSc1oc(-c2ccc(C)cc2)nc1S(=O)(=O)c1ccc(C)cc1 | 0.68
CCOc1ccc(-c2nc3cc(N=CC=Cc4ccccc4[N+](=O)[O-])ccc3o2)cc1 | -0.09
O=S1(=O)CCC(S(=O)(=O)N2CCOCC2)C1 (configuration not stated) | -0.26
CC(=O)Nc1cc(C(=O)NCCc2ccccc2)ccc1Nc1cccc(Cl)c1 | -0.37
COc1cc(Nc2nc(-c3cc(C)ccc3C)cs2)c(OC)cc1Cl | -1.17
CCCCOC(=O)c1ccc(N=Cc2c(O)cc(C)c(Cl)c2C)cc1 | -0.22
COc1cc2c(C(=O)NC3CCCCCC3)cn(C)c(=O)c2cc1OC | -2.41
CN1CCc2[nH]c3c(Cl)cccc3c2C1 | -0.57
O=[N+]([O-])c1c(NC2CC2)ncnc1NC1CC1 | 0.07
CN(C)CCNC(=O)c1c[nH]c2ccc(S(=O)(=O)N3CCc4ccccc43)cc2c1=O | 0.2
Cc1cccc(C(=O)Nc2sc3c(c2C(=O)NCc2ccco2)CCCC3)c1 | -0.65
COc1cccc(Oc2nc(N)[nH]c(=O)c2I)c1 | -0.36
COc1ccc(C2C=C(C(=O)O)Nc3nnnn32)cc1 (configuration not stated) | -0.64
O=C1NC(C(F)(F)F)(C(F)(F)F)N=C2SC=C(C3CC3)N12 | -0.27
Cc1ccc(C(C)C)cc1C(=O)CC1(O)C(=O)N(C)c2ccccc21 (configuration not stated) | -0.12
CCCCN(C)S(=O)(=O)c1ccc(C(=O)Nc2ccc3c4c(cccc24)C(=O)N3CC)cc1 | -0.11
O=[N+]([O-])c1ccn(-c2nc(-c3ccco3)cc(C(F)(F)F)n2)n1 | -1.25
COc1ccc(C(=O)Nc2cc(C)c(O)c(S(=O)(=O)c3ccc(OC)cc3)c2C)cc1 | 0.37
O=C(CSc1nc2c(c(=O)n1-c1ccc(Br)cc1)SCC2)NCc1ccccc1 | 0.58
CCOC(=O)c1cnc2c(OC)cccc2c1NC(C)CC (configuration not stated) | 0.14
CCOC(=O)c1ccc(N2C(=O)CC(Nc3ccc(CCO)cc3)C2=O)cc1 (configuration not stated) | 2.37
COCCCNC(=O)c1cc2c(=O)n3cccc(C)c3nc2n(CC2CCCO2)c1=N (configuration not stated) | -0.92
COc1ccc(C2C=C(Nc3ccc(C)cc3)C(=O)N2c2ccc(C)cc2)c(OC)c1 (configuration not stated) | -0.67
CC(C)c1ccc(CNC(=O)c2cccc3ccccc23)cc1 | -0.28
CCC1=Nc2cc(C(=O)NCC3CCCO3)ccc2Sc2ccc(Cl)cc21 (configuration not stated) | -1.75
Cc1ccc(C2C=C(c3ccc(Cl)cc3)Nc3ncnn32)c(C)c1 (configuration not stated) | -0.38
Cc1ccc(C(=O)Nc2cc(C34CC5CC(CC(C5)C3)C4)ccc2C)cc1 | -0.59
O=C(c1ccc(C(=O)N2CCN(c3cccc(Cl)c3)CC2)cc1)N1CCN(c2cccc(Cl)c2)CC1 | 0.25
O=C(NCc1ccccn1)C(=O)Nc1ccccc1Cl | 0.07
COc1ccc(NC(=O)CC2Sc3ccccc3NC2=O)cc1OC (configuration not stated) | 1.71
Cc1cc(NS(=O)(=O)c2ccc(NC(=O)c3ccc(C(C)(C)C)c(Br)c3)cc2)no1 | -1.11
CCn1c(C=Cc2ccc(O)cc2)nc2ccccc2c1=O | 1.24
COC(=O)C1=C(C(=O)OC)SC(=C2C(=S)C(C)(C)N(C(=O)c3cccnc3)c3ccc(C)cc32)S1 | -1.7
COc1cc2c(C(=O)NCCCN3CCN(c4cccc(Cl)c4)CC3)cn(C)c(=O)c2cc1OC | -0.25
COCCn1c(=O)[nH]c2cc(C(=O)NCc3ccccc3Cl)ccc2c1=O | 0.63
CC(C)OCCCNC(=O)c1c(O)c2c([nH]c1=O)CCCC2 | -1.09
COc1cccc(NC(=O)c2c(O)c3cccc4c3n(c2=O)CC4)c1 | 1.54
Cc1ccccc1Cn1c(SCc2ccc(Cl)cc2)nc2c1c(=O)n(C)c(=O)n2C | 0.02
CCc1cc2c(=O)c(-c3cscn3)coc2cc1OC | -0.13
CC(=O)Oc1c(S(=O)(=O)c2ccccc2)c(C)nn1-c1ccccc1 | 0.66
COc1ccc(NC(=O)CSc2nc3cc4c(cc3c(=O)n2Cc2ccc3c(c2)OCO3)OCO4)cc1 | -1.09
O=C1OC(C(=O)Nc2cccc(Br)c2)Cc2ccccc21 (configuration not stated) | -0.31
Cn1c(C(=O)N2CCC(C(N)=O)CC2)cc2c(=O)[nH]c3ccccc3c21 | -1.23
CC(C)C(N)C(=O)N1CCOCCOCCOCC1 (configuration not stated) | 0.39
Cc1cc(N)n2ncc(-c3ccc(Cl)cc3)c2n1 | 0.64
COc1ccc(CCNC(=O)C(=O)Nc2ccc(Br)cc2)cc1OC | 1.24
COc1ccccc1N1CCN(C(=O)c2c[nH]c3ccc(S(=O)(=O)Nc4ccc(C(C)C)cc4)cc3c2=O)CC1 | 0.7

In the list so far, these contain a CF3 group.
SMILES | Measles inh
CCOc1ccc(NC(=O)c2cc3n(n2)C(C(F)(F)F)CC(c2ccc4c(c2)OCO4)N3)cc1 (configuration not stated) | 0.37
CCCNC(=O)c1nn2c(c1Cl)NC(c1cccs1)CC2C(F)(F)F (configuration not stated) | -1.24
CCNS(=O)(=O)c1cc(-c2nnc(Nc3cccc(C(F)(F)F)c3)c3ccccc23)ccc1C | -0.06
O=C1NC(C(F)(F)F)(C(F)(F)F)N=C2SC=C(C3CC3)N12 | -0.27
O=[N+]([O-])c1ccn(-c2nc(-c3ccco3)cc(C(F)(F)F)n2)n1 | -1.25
